# Compound activity as filed in PubChem.
# FGF22 binding: FGF22 (human) thermal shift binding | calls only at 9.99 µM | Q9HCT0 | AID 651658 | recombinant FGF22 thermal shift, SYPRO orange fluorescence; percent of sucrose octasulfate shift, DMSO zero | 340,000 tested, 1.5% active;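 active = melting point raised past a set limit in the mean and every replicate; three in four hits are not shown here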
# Target sequence (Q9HCT0 whole entry, looked up): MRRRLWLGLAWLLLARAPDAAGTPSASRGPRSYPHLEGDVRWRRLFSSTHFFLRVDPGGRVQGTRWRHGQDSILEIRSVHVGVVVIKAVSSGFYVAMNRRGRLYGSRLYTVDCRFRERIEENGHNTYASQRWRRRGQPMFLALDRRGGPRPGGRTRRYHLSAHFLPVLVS
# B2AR ag: human beta-2 adrenergic receptor agonism by FAP; 340,000 tested, 0.43% active; P07550; Am2.2-beta2AR cells, FAP receptor internalization, flow cytometry; reference of the scale not given here; response, % (no concentration beside the values);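 active = response above a set limit, near 3 SD of response in nonfluorescent compounds, cut at about 42% in these data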;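 also: stock transfer was 100 nL into about 11 µL; a reference agonist was the positive control; negative values mostly stem from fluorescent compounds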
# UCH37 inh: blocks the human deubiquitinase UCH37; Q9Y5K5; purified proteasome/UCH37, Ub-AMC cleavage fluorescence; inhibition, % (no concentration beside the values); 330,000 tested, 0.33% active;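 active = mean of two replicates above 20%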;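 also: 0% = compound-free wells with enzyme and 100% = wells lacking proteasome; stock transfer was 100 nL into about 20 µL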
# Target sequence (Q9Y5K5 whole entry, looked up): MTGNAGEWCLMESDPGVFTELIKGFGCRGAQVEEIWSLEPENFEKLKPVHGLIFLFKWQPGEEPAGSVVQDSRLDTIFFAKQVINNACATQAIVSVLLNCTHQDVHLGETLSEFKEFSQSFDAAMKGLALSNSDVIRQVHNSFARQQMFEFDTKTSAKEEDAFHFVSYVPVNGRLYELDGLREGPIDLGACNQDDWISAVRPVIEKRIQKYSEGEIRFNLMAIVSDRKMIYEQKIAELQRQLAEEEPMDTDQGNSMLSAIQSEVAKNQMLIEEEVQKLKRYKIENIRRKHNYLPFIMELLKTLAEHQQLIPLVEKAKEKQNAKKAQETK
#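 Material: human UCH37 enzyme supplied as purified proteasome complex. Measure: % inhibition of Ub-AMC cleavage fluorescence. Medium: pH 7.4 Tris-HCl (50 mM) with ovalbumin, ATP-MgCl2, DTT. Times: 30 min preincubation with enzyme, 25 min cleavage at room temperature. Detection: AMC fluorescence intensity at 355/460 nm.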
# HNF4A DNA FP: change in binding of human HNF4 alpha to DNA; P41235; HNF4a-FITC DNA binding, fluorescence polarization, 1 h; activity change, % at 10 µM; 360,000 tested, 0.3% active; AID 1224865; in the data active = activity change above about 30%, passing the limit was not always enough;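 also: controls were the assay level and a saturating level of protein; the project sought stronger binding though the title names inhibitors; some compounds called inactive have numbers as strong as hits; positive values seem to mean higher polarization but the record does not say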
# Ecoli growth: inhibitors of Escherichia coli growth. OD600, 23 h; active compounds read low. OD600 absorbance (test concentration not listed). 330,000 tested, 0.21% active. AID 1053175;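 active = OD600 absorbance below the run mean of sample wells minus 3.6 SD, in any replicate, cut at about 0.56 in these data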;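 also: stock transfer was 300 nL into about 60 µL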
# ALR H2O2 inh: blocks human ALR sulfhydryl oxidase activity | purified ALR, DTT oxidation, H2O2 HRP-luminol luminescence | inhibition, % (test concentration not listed) | AID 485317 | P55789 | 290,000 tested, 3.8% active;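 active = mean and each replicate at 75% or more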;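 also: stock transfer was 7.5 nL into about 7.5 µL; 0% = neutral wells and 100% = wells with inactivated enzyme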
# Target sequence (P55789 whole entry, looked up): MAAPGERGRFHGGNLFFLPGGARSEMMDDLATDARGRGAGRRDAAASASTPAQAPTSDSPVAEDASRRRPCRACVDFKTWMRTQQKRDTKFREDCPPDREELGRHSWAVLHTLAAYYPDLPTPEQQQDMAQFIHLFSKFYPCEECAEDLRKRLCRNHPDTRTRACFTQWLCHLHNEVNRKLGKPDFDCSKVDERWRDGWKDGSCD
# rRNA inh HTS: inhibits bacterial ribosomal RNA function over humanized ribosomes | 350,000 tested, 1.6% active | AID 720706 | GFP signal change (wild-type ribosome), % (no concentration beside the values) | E. coli WT GFP vs humanized-ribosome RFP mutants, fluorescence, 24 h; active compounds read low; DMSO median 0, no signal -100;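 active = significant combined selectivity score with lowered wild-type GFP, culture density cut under 30%, mutant RFP and density less affected; inactive = any of these conditions unmet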; also: one replicate is shown; some compounds called inactive have numbers as strong as hits
# rRNA inh HTS OD600: further read-out of rRNA inh HTS, marked with its call; OD600 change, %; measured here: OD600 growth;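 optical density of the mix in the first replicate; 0 = DMSO median and -100 = no signal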
# rRNA inh HTS RFP: second read-out of rRNA inh HTS, no call of its own (marks repeat the call); RFP signal change, %; measured here: RFP humanized mutant strains;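 first replicate; 0 = DMSO median and -100 = no signal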
# An asterisk follows results filed as active; i = inactive; x = not tested or not shown. An excerpt; the hit share may differ from the screen's.
(1) CCn1cc(C(=O)O)c(=O)c2cc(F)c(N3CCN(C(=S)NC(=O)c4c(OC)cccc4OC)CC3)cc21
(2) CCn1c(SCC(=O)Nc2nnc(C)s2)nnc1-c1ccco1
(3) COC(=O)CSc1ccc(C#N)c(SCC(=O)OC)c1
(4) COc1ccc(-n2nc([N+](=O)[O-])c(=NCc3cccnc3)n2O)cc1
(5) COc1ccc(-c2noc(CNC(=O)c3ccc4c(c3)OCO4)n2)cc1OC
(6) CN(Cc1ccccc1)C(=O)c1nc[nH]c1C(=O)N(C)Cc1ccccc1
(7) Cc1cc(Cl)ccc1OCC(=O)OCC(=O)NC1CCCC1
(8) O=Nc1ccc(NO)c2ccccc12

assay / compound	1	2	3	4	5	6	7	8
FGF22 binding	i	i	x	i	i	i	i	i
B2AR ag	-18.4	-1.8	2.6	2.4	x	-0.8	-1.4	x
UCH37 inh	-20.1	2.8	2.2	x	5.5	6.1	1.3	x
HNF4A DNA FP	2.6	-4.3	1.4	0.6	0.8	4.3	1.8	3.2
Ecoli growth	0.0695*	0.621	0.677	x	0.663	0.683	0.696	x
ALR H2O2 inh	x	-2.6	98.9*	-16.8	-4.1	-0.9	0.1	x
rRNA inh HTS	-40.3	8.3	x	-3.8	-0.1	2.6	x	-7.0
rRNA inh HTS OD600	-73.1	7.6	x	12.4	-13.7	15.1	x	1.6
rRNA inh HTS RFP	-13.7	-5.6	x	-7.8	3.8	2.1	x	33.8

(9) CC(=O)N1c2ccc(S(=O)(=O)N3CCCCC3)cc2CC1C(=O)Nc1ccccc1C(F)(F)F (stereo not drawn)
(10) O=C1COc2ccc(C(=O)c3ccccc3C(=O)NCc3ccccc3)cc2N1
(11) CCOC(=O)CCCCC(=O)c1[nH]c(=O)[nH]c1Cn1cnc2ccccc21
(12) Cc1[nH]c2nc3ccccc3n2c(=O)c1CCC(C)C
(13) CCC(=O)c1ccc(OCC(=O)OCC(=O)N2CCN(c3ccc(OC)cc3)CC2)cc1
(14) Cc1ccc(N2C(=S)NC3c4ccccc4OC2(C)C3C(=O)N(C)C)cc1 (stereo not drawn)
(15) Nc1nonc1-c1nc2ccccc2n1CC(=O)NC1CCCC1
(16) CN(C(=O)CN1CCN(c2ccccc2F)CC1)C1CCCc2ccccc21 (stereo not drawn)

assay / compound	9	10	11	12	13	14	15	16
FGF22 binding	i	x	i	x	i	i	x	i
B2AR ag	-1.7	3.5	-1.8	-9.2	-1.2	2.4	6.4	10.6
UCH37 inh	-0.7	1.9	2.3	-6.3	1.4	3.1	1.4	3.7
HNF4A DNA FP	-1.9	0.1	-2.5	1.2	-1.0	-1.1	-0.3	0.0
Ecoli growth	0.607	0.721	0.645	0.67	0.623	0.71	0.755	0.695
ALR H2O2 inh	1.1	-5.6	42.8	-2.3	11.4	x	-2.9	0.7
rRNA inh HTS	1.8	x	7.4	x	-1.6	13.8	x	-4.0
rRNA inh HTS OD600	1.8	x	0.5	x	2.2	10.4	x	-34.3
rRNA inh HTS RFP	1.1	x	-8.3	x	-1.5	0.7	x	1.3

(17) COC(=O)c1cc(C(=O)Nc2nnc(CC(C)(C)C)s2)cc([N+](=O)[O-])c1
(18) N/C(Cn1nnc(-c2ccccc2)n1)=N\O
(19) Cc1ccc2[nH]c(C)c(CCNC(=O)C3CCCCC3C(=O)OCC(F)(F)F)c2c1 (stereo not drawn)
(20) O=C(CSc1nncc2ccccc12)Nc1ccccc1
(21) CC(OC(=O)[C@@H]1CCCN1C(=O)c1cccs1)C(=O)Nc1cccc([N+](=O)[O-])c1 (stereo partly drawn)
(22) O=C(NC1CC1)C1=C[C@@H](c2c[nH]c3ccccc23)C[C@@H](OCCCCO)O1
(23) COc1ccccc1CNC(=O)C1CCC(CNc2c(N3CCC(C)CC3)c(=O)c2=O)CC1 (stereo not drawn)
(24) O=C(CS(=O)c1ccccc1[N+](=O)[O-])Oc1ccc(Br)cc1 (stereo not drawn)

assay / compound	17	18	19	20	21	22	23	24
FGF22 binding	x	x	x	i	i	i	i	i
B2AR ag	11.2	-2.2	5.8	-4.5	-1.1	-6.2	1.9	1.4
UCH37 inh	4.2	x	3.3	7.9	1.5	-1.4	0.8	2.2
HNF4A DNA FP	-0.8	1.6	2.9	0.5	-1.1	7.3	-0.1	25.1
Ecoli growth	0.619	x	0.682	0.598	0.682	x	0.657	0.619
ALR H2O2 inh	0.7	-0.5	-2.1	99.5*	2.5	-23.1	-4.9	78.3*
rRNA inh HTS	x	x	x	0.3	0.1	0.3	-6.3	17.4
rRNA inh HTS OD600	x	x	x	-0.1	4.9	1.9	-5.1	14.6
rRNA inh HTS RFP	x	x	x	-0.9	10.6	3.6	-2.1	-1.6

(25) COc1cccc(CNC(=O)COC(=O)/C(C#N)=C/c2ccc(N(C)C)cc2)c1
(26) C=CCOC(=O)c1c(C)nc2cc3c(cc2c1C)OCO3
(27) CSc1ccc(NC(=O)N2CCC(C(=O)c3ccc(F)cc3)CC2)cc1
(28) COc1cc(Cl)c(S(=O)(=O)n2cnc(C)c2)cc1Cl
(29) Cc1ccccc1N1CC(C(=O)Nc2ccc(S(=O)(=O)N3CCOCC3)cc2)CC1=O (stereo not drawn)
(30) CC(C)C[C@H](NC(=O)c1nc[nH]c1C(=O)NCCCCCN)C(=O)OCc1ccccc1
(31) CC(=O)Nc1ccc(S(=O)(=O)N2CCc3ccccc3C2CC(=O)O)cc1 (stereo not drawn)

assay / compound	25	26	27	28	29	30	31
FGF22 binding	i	i	i	i	i	i	i
B2AR ag	10.4	8.6	8.6	2.3	9.1	-7.1	6.0
UCH37 inh	3.7	-11.8	0.8	0.8	5.3	3.6	1.2
HNF4A DNA FP	10.5	-4.0	5.4	-0.4	2.3	-1.7	-1.8
Ecoli growth	0.668	0.691	0.629	0.668	0.62	x	0.661
ALR H2O2 inh	-7.7	-4.3	-0.5	0.0	-4.3	8.2	-2.7
rRNA inh HTS	2.0	5.2	-6.7	-2.8	1.6	11.2	2.4
rRNA inh HTS OD600	8.5	-1.5	-5.5	-4.7	3.8	18.2	6.4
rRNA inh HTS RFP	47.9	-6.8	2.7	-8.9	-1.5	3.2	-2.4

# Structures above that contain a halogen, in the order listed:
(1) CCn1cc(C(=O)O)c(=O)c2cc(F)c(N3CCN(C(=S)NC(=O)c4c(OC)cccc4OC)CC3)cc21
(7) Cc1cc(Cl)ccc1OCC(=O)OCC(=O)NC1CCCC1
(9) CC(=O)N1c2ccc(S(=O)(=O)N3CCCCC3)cc2CC1C(=O)Nc1ccccc1C(F)(F)F (stereo not drawn)
(16) CN(C(=O)CN1CCN(c2ccccc2F)CC1)C1CCCc2ccccc21 (stereo not drawn)
(19) Cc1ccc2[nH]c(C)c(CCNC(=O)C3CCCCC3C(=O)OCC(F)(F)F)c2c1 (stereo not drawn)
(24) O=C(CS(=O)c1ccccc1[N+](=O)[O-])Oc1ccc(Br)cc1 (stereo not drawn)
(27) CSc1ccc(NC(=O)N2CCC(C(=O)c3ccc(F)cc3)CC2)cc1
(28) COc1cc(Cl)c(S(=O)(=O)n2cnc(C)c2)cc1Cl

assay / compound	1	7	9	16	19	24	27	28
FGF22 binding	i	i	i	i	x	i	i	i
B2AR ag	-18.4	-1.4	-1.7	10.6	5.8	1.4	8.6	2.3
UCH37 inh	-20.1	1.3	-0.7	3.7	3.3	2.2	0.8	0.8
HNF4A DNA FP	2.6	1.8	-1.9	0.0	2.9	25.1	5.4	-0.4
Ecoli growth	0.0695*	0.696	0.607	0.695	0.682	0.619	0.629	0.668
ALR H2O2 inh	x	0.1	1.1	0.7	-2.1	78.3*	-0.5	0.0
rRNA inh HTS	-40.3	x	1.8	-4.0	x	17.4	-6.7	-2.8
rRNA inh HTS OD600	-73.1	x	1.8	-34.3	x	14.6	-5.5	-4.7
rRNA inh HTS RFP	-13.7	x	1.1	1.3	x	-1.6	2.7	-8.9
